Measles inh: inhibitors of measles virus growth in infected cells | hit rate 0.1% among 33,000 | infected Vero cells, GFP fluorescence, 64 h; active compounds read low | AID 745 | z-score (test concentration not listed);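 active = z-score under -3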;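 also: score is relative to mean and SD of the compound wells of a plate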
Active calls of the source: *. Some of the compounds tested (hit frequency here may not be typical).

Measles inh,Compound
0.68,CCOC(=O)C1=C(C)NC(=O)NC1c1ccc(NC(C)=O)cc1 (stereo not drawn)
-0.08,Cc1sc(NC(=O)c2ccc(F)cc2)nc1-c1ccc(Br)cc1
0.14,COC(=O)c1cc(N2C(=O)C3C4c5ccccc5C(C)(c5ccccc54)C3C2=O)ccc1Cl (stereo not drawn)
0.29,C=CCn1c(Cc2c(C)[nH]c3ccccc23)nnc1SCC(=O)Nc1ccc(Br)cc1
0.44,Cc1c(C(=O)Nc2ccc(S(N)(=O)=O)cc2)sc2nc(-c3ccccc3)cn12
1.3,CCOC(=O)c1c(Cl)nc2c(Br)cc(N)c3c2c1-c1ccccc1C3=O
-0.42,O=C1c2ccccc2C(=O)N1c1ccc(OCC(O)COc2ccc([N+](=O)[O-])cc2)cc1 (stereo not drawn)
-0.63,CC(=O)N1c2c(cc(Br)cc2S(=O)(=O)N2CCN(c3cc(C)ccc3C)CC2)CC1C (stereo not drawn)
-0.51,CC(=O)N1CCc2cc(Br)cc(S(=O)(=O)NCc3cccnc3)c21
0.57,O=C(Nc1ccc(C(F)(F)F)cc1)c1cc(Cl)ccc1Nc1ccccc1
0.51,Cc1onc(-c2ccccc2)c1C(=O)N=C1SCCN1C(=O)c1c(-c2ccccc2)noc1C
1.6,CC1=C(C(=O)N2CCCCC2)C(c2ccc3c(c2)OCO3)C2=C(CC(C)(C)CC2=O)N1 (stereo not drawn)
-0.31,O=c1c(-c2cccc(Cl)c2)c(C(F)(F)F)oc2c(CN3CCOCC3)c(O)ccc12
-0.28,O=c1[nH]c(CN2CCN(c3ccc(F)cc3)CC2)nc2ccccc12
-0.02,COc1cc2c(C(=O)Nc3ccc(C)c(F)c3)cn(C)c(=O)c2cc1OC
-0.71,COc1ccc(C(C(=O)Nc2ccc3c(c2)OCCO3)N(C)C(=O)Cc2c[nH]c3ccccc23)cc1 (stereo not drawn)
-1.1,Cn1c(=O)oc2cc(S(=O)(=O)N3CCN(c4ccccn4)CC3)ccc21
1.5,O=C1NC(c2cccc(O)c2)C(C(=O)c2cccnc2)C(O)(C(F)(F)F)N1 (stereo not drawn)
-0.33,Cc1ccc(-c2nc3cnccn3c2NC2CCCCC2)cc1
-0.21,O=C(O)CCCCN1Cc2ccccc2C1
-0.28,Cc1ccc(NC(=O)N(CC(C)C)CC(C)C)cc1
-0.81,Cc1ccc(NC(=O)c2ccc(CSc3ccc(Cl)cc3)cc2)cc1
0.58,CC(=O)Nc1ccccc1-c1nc2ccccc2[nH]c1=O
-0.27,O=[N+]([O-])c1ccc(-c2cn(-c3cccc(Cl)c3)c(=S)[nH]2)cc1
-0.37,COc1ccc(-n2nc(C(=O)Nc3ccccc3C(F)(F)F)c3ccccc3c2=O)c(OC)c1
-1.7,O=C(CCC1CCCCC1)Nc1c2c(nn1-c1ccc([N+](=O)[O-])cc1)CS(=O)(=O)C2
-0.62,COc1cc(OC)cc(C(=O)N2CCN(C(=O)c3cccnc3)CC2)c1
0.03,Cc1cc(O)c(C(C)C)cc1NC(=O)Cn1nc(-c2ccc(C)c(S(=O)(=O)N3CCCCC3)c2)c2ccccc2c1=O
-0.32,COc1ccc(NC(=O)Cn2c(=O)n(Cc3ccccc3)c(=O)c3ccccc32)cc1
-0.43,CC1=C(C(=O)OCC2CCCO2)C(c2cc3c(cc2[N+](=O)[O-])OCO3)C2=C(CC(C)(C)CC2=O)N1 (stereo not drawn)
1.2,O=C(CN1C(=O)CSc2ccc(S(=O)(=O)N3CCOCC3)cc21)NC1CC1
1.1,COC(=O)C1C(=O)C2=C(CC1C)NC(C)=C(C(=O)OC1CCCC1)C2c1ccccc1OC(C)C (stereo not drawn)
1.1,COc1ccc(OC)c(NC(=O)C2=C(C)NC(=S)NC2c2ccccc2OC)c1 (stereo not drawn)
-1,Oc1ccccc1Nc1nnc(-c2ccccc2)c2ccccc12
-0.5,CCOC(=O)c1sc(NC(=O)COc2ccc(C(C)C)c(C)c2)nc1C
0,CCOC(=O)c1cc2c(=O)n3ccccc3nc2n(C)c1=NC(=O)c1cccc(OC)c1OC
-0.56,Cc1sc(NC(=O)C2C3CCC(O3)C2C(=O)O)c(C(N)=O)c1-c1ccc(C(C)C)cc1 (stereo not drawn)
-0.6,CCc1c(O)nc(SCC(=O)NC2CCCCC2)n(-c2ccccc2)c1=O
1.1,COc1ccc(C2C(C(=O)Nc3ccccn3)=C(C)NC3=C2C(=O)CCC3)c(OC)c1 (stereo not drawn)
-0.93,O=C(c1cc2c(=O)[nH]c3ccccc3c2s1)N1CCC(Cc2ccccc2)CC1

The list goes on, starting with the last 2 of the part before.
Measles inh,Compound
1.1,COc1ccc(C2C(C(=O)Nc3ccccn3)=C(C)NC3=C2C(=O)CCC3)c(OC)c1 (stereo not drawn)
-0.93,O=C(c1cc2c(=O)[nH]c3ccccc3c2s1)N1CCC(Cc2ccccc2)CC1
-0.01,CCc1ccc(C2=CC(c3cccc(C)c3)n3nnnc3N2)cc1 (stereo not drawn)
0.01,Cc1ccc(S(=O)(=O)N2CN3CN(C2)CN(S(=O)(=O)c2ccc(C)cc2)C3)cc1
-0.61,CCCOC(=O)c1ccc(NC(=O)COc2cc(C)c(Cl)c(C)c2)cc1
-0.55,O=C(O)CN1C(=O)c2ccc(C(=O)O)cc2C1=O
-0.6,O=[N+]([O-])c1ccc(CSc2nnc(-c3ccco3)n2Cc2ccccc2)cc1
-1,O=C(Nc1ccccc1)c1cccc(S(=O)(=O)N2CCCc3ccccc32)c1
0.95,O=C(NCc1ccc(Cl)cc1)c1cc(-c2ccc(Cl)cc2)on1
-1.4,COC(=O)c1ccc2c(=O)n(Cc3ccc(Cl)cc3)c(=S)[nH]c2c1
0.73,O=C(c1ccc(=O)[nH]c1)N(Cc1ccco1)C1(C(=O)NC2CCCC2)CCCCC1
0.55,CCOC(=O)c1c(NC(=O)C2CCCC2)sc2c1CCC(CC)C2 (stereo not drawn)
0.65,CCN(C(=O)c1cn(C)c(=O)c2cc(OC)c(OC)cc12)c1ccccc1C
0.47,N#CCN1CCN(CC(=O)Nc2ccc(F)cc2)CC1
-0.53,O=[N+]([O-])c1cccc(S(=O)(=O)NCCSCc2ccc(Cl)cc2)c1
-0.58,COc1cccc(-c2nnc(NC(=O)c3ccc(S(=O)(=O)N4CCCCC4C)cc3)o2)c1 (stereo not drawn)
0.68,O=C(NCc1ccc(F)cc1)c1ccc(N2CC3CC(C2)c2cccc(=O)n2C3)c(NC(=O)c2ccc(F)cc2)c1 (stereo not drawn)
0.61,O=C(Nc1nccs1)c1ccc2c(c1)C(=O)N(c1ccc(Sc3ccc([N+](=O)[O-])cc3)cc1)C2=O
0.99,CCOC(=O)c1c(C)[nH]c(C(=O)CN2CC(C)OC(C)C2)c1C (stereo not drawn)
0.26,COc1ccc(C2CC(C(F)(F)F)n3ncc(C(=O)Nc4ccccc4C)c3N2)cc1OC (stereo not drawn)
0.72,N#Cc1c(N=Cc2cn[nH]c2-c2ccccc2)sc2c1CCCC2
-0.18,CCc1ccc(NC(=O)CSc2nc3c([nH]c4ccccc43)c(=O)n2-c2ccc([N+](=O)[O-])cc2)cc1
-0.32,CCOC(=O)c1ccc2c(c1)C1C=CCC1C(c1cccnc1)N2 (stereo not drawn)
-0.47,CCCN(C(=O)c1cc2c(=O)oc3ccccc3c2s1)c1ccc(OCC)cc1
0.18,CCn1c(C)csc1=NC(=O)c1ccccc1O
1,CC(C(=O)O)n1nnc2ccccc21 (stereo not drawn)
2.2,CCOc1cccc(OCC)c2c(C)nc(C)c1-2
0.2,O=C(Nc1cccc2ccccc12)c1cccc(N=Cc2cc(Cl)ccc2O)c1
2.6,Cc1ccc(OCC(=O)N2CCC(N3CCCCCC3)CC2)cc1
-1.6,O=C(NCCN1CCc2ccccc2C1)c1cc(-c2ccc(Br)s2)nc2ccccc12
0.91,COc1cccc(C2C(C(=O)Nc3ccccc3F)=C(C)NC3=C2C(=O)CC(C)(C)C3)c1 (stereo not drawn)
-0.26,Cc1ccc(S(=O)(=O)N2CCCC(C(=O)NCc3ccc4c(c3)OCO4)C2)cc1 (stereo not drawn)
0.43,CC1CCC2C(=O)N(c3ccc(N(C)Cc4ccccc4)c([N+](=O)[O-])c3)C(=O)C2C1 (stereo not drawn)
-0.13,COc1ccc(CNC(=O)CCc2cn(C)c3ccccc23)c(OC)c1
1.5,Cn1ncc([N+](=O)[O-])c1CC(=O)O
0.8,COC(=O)c1sc(-c2ccccc2)cc1NC(=O)c1ccc(S(=O)(=O)N2CC3(C)CC2CC(C)(C)C3)cc1 (stereo not drawn)
-1,O=C(CC1(O)C(=O)Nc2ccccc21)c1ccccc1[N+](=O)[O-] (stereo not drawn)
0.8,COc1ccc(C2=C(Cl)C=C(c3ccccc3)c3ccccc3O2)cc1OC
1.3,CCOC(=O)C(C#N)C(c1ccco1)c1ccccc1OC (stereo not drawn)
1.6,O=C(O)c1ccc2c(c1)C(=O)N(c1ccc(-c3nc4ccccc4s3)cc1)C2=O
-0.59,CC1(C)CC(=O)c2cc(OCC(=O)N3CCOCC3)ccc2O1
0.73,NC(=O)C1CCN(C(=O)CCCn2c(=S)[nH]c3cc4c(cc3c2=O)OCO4)CC1
0.5,C=CCOC(=O)COc1ccc2c3c(c(=O)oc2c1C)CCC3
-0.39,Cc1ccc(-n2c(SCC(=O)Nc3cccc(F)c3)nc3c(c2=O)SCC3)cc1
0.76,COc1ccc(C(=O)Nc2ccc(S(=O)(=O)Nc3nccnc3OC)cc2)cc1OC
1.1,COC(=O)COc1ccc2c(=O)c(Oc3cc(C)c(Cl)c(C)c3)coc2c1
-0.52,COc1cc(-n2c(=O)c3ccccc3n(Cc3ccc(Cl)cc3)c2=O)cc(OC)c1OC
-1.2,CCCCCC12CCC(O)(CC1)CC2
-0.21,NC(=O)c1sc2sc(C(N)=O)c(N)c2c1N
-0.56,CCC(CC)C(=O)Nc1c2c(nn1-c1ccccc1C)CSC2
0.23,Cn1c(=O)c2c(nc(SCC(=O)NC(C)(C)C)n2Cc2cccc(Cl)c2)n(C)c1=O
-2.3,O=c1c2c3c(sc2ncn1Cc1ccc(Cl)cc1)CCCC3
-0.65,CCOC(=O)c1cnc(-c2ccccc2)nc1Nc1ccc(OC)cc1
-1.1,O=C(CN(Cc1ccccc1)S(=O)(=O)c1ccc(F)cc1)NC1CCCCC1
-0.98,COc1cc(-c2nc3ccccc3c(=O)n2CC(=O)Nc2ccc(C)c(F)c2)cc(OC)c1OC
0.11,CC1CC(C)CN(S(=O)(=O)c2ccc(C(=O)Nc3nc(-c4ccccc4)cs3)cc2)C1 (stereo not drawn)
-0.43,O=C(NC1CCCCC1)c1ccc2c(c1)N(Cc1cccc(Cl)c1)C(=O)CS2
0.53,O=C(O)c1ccc(NC(=O)C2CC=CCC2C(=O)O)cc1 (stereo not drawn)
-0.55,O=C(COc1ccc(-c2nnc(Nc3ccc(F)cc3)c3ccccc23)cc1)N1CCCCC1
0.11,Cc1sc2c(c1C)c(=O)n(CCc1ccccc1)c(=O)n2Cc1ccccc1F
0.7,Nc1c(C(=O)Nc2ccc(Br)cc2)sc2nc3c(cc12)C(=O)CCC3
0.05,COc1cc(C(=O)Nc2ccc3c(c2)ncn3-c2ccccc2)cc(OC)c1OC

Structural class, the entries above with an aryl thioether with sulfur outside any ring.
Measles inh,Compound
0.29,C=CCn1c(Cc2c(C)[nH]c3ccccc23)nnc1SCC(=O)Nc1ccc(Br)cc1
-0.81,Cc1ccc(NC(=O)c2ccc(CSc3ccc(Cl)cc3)cc2)cc1
-0.6,CCc1c(O)nc(SCC(=O)NC2CCCCC2)n(-c2ccccc2)c1=O
-0.6,O=[N+]([O-])c1ccc(CSc2nnc(-c3ccco3)n2Cc2ccccc2)cc1
0.61,O=C(Nc1nccs1)c1ccc2c(c1)C(=O)N(c1ccc(Sc3ccc([N+](=O)[O-])cc3)cc1)C2=O
-0.18,CCc1ccc(NC(=O)CSc2nc3c([nH]c4ccccc43)c(=O)n2-c2ccc([N+](=O)[O-])cc2)cc1
-0.39,Cc1ccc(-n2c(SCC(=O)Nc3cccc(F)c3)nc3c(c2=O)SCC3)cc1
0.23,Cn1c(=O)c2c(nc(SCC(=O)NC(C)(C)C)n2Cc2cccc(Cl)c2)n(C)c1=O

The list goes on.
Measles inh,Compound
0.53,O=C(Cc1cccs1)N(Cc1cccs1)C1(C(=O)NC2CCCC2)CCCCC1
-0.17,COc1cccc2sc(=NC(=O)c3cc(Cl)sc3Cl)n(C)c12
1.6,Cc1c(C(=O)N(C)C)sc2c1c(=O)n(-c1ccc(Cl)cc1)c(=O)n2CC(=O)c1ccccc1
1.9,CCOC(=O)Cc1cc(=O)[nH]c(/N=C(\N)Nc2ccc(C)cc2C)n1
-0.71,Cc1ccccc1C1CC(c2ccc(Cl)cc2)Nc2ncnn21 (stereo not drawn)
-0.69,CCOc1ccc(C2C3=C(CCCC3=O)Nc3nc(SCc4ccccc4)nn32)cc1 (stereo not drawn)
-0.39,Cn1c(SCC(=O)Nc2cccc(Cl)c2)nc2c([nH]c3ccccc32)c1=O
0.53,O=C(CCC1N=C2c3ccccc3N=C(SCc3ccccc3F)N2C1=O)NCc1ccc(F)cc1 (stereo not drawn)
-0.45,CC(C)Nc1cc2c(NC(C)C)onc2c2c1C(=O)c1ccccc1C2=O
0,O=[N+]([O-])c1ccccc1C=Nc1ccc2c(c1)OCCO2
-0.48,O=C(CC1C(=O)N(c2ccccc2)C(=S)N1Cc1ccc2c(c1)OCO2)Nc1ccccc1 (stereo not drawn)
2.3,CCOC(=O)c1cnc2ccc(Br)cc2c1NCCN1CCOCC1
-0.09,COc1ccc(C#N)c(S(=O)(=O)Cc2ccccc2)c1
-0.19,COc1ccc(NS(=O)(=O)c2cc(Br)cc3c2N(C(C)=O)CC3)cc1
-1.2,COc1ccc(Br)cc1CN1C(=O)c2ccccc2C1C(=O)NCC1CCCO1 (stereo not drawn)
-1.3,O=C(Nc1nc(-c2ccc3ccccc3c2)cs1)c1cc([N+](=O)[O-])ccc1Cl
-0.14,C=CCNc1nc2c(c(=O)n(C)c(=O)n2C)n1CCC(C)C
-0.63,COc1ccc(NC(=O)c2sc3ncnc(N4CCCCC4C)c3c2C)cc1OC (stereo not drawn)

Pulled by structure from the entries so far, 2 records:
Measles inh,Compound
-0.69,CCOc1ccc(C2C3=C(CCCC3=O)Nc3nc(SCc4ccccc4)nn32)cc1 (stereo not drawn)
1.9,CCOC(=O)Cc1cc(=O)[nH]c(/N=C(\N)Nc2ccc(C)cc2C)n1

Source: PubChem BioAssay
